# Sa ugtP lethal: growth inhibition of ugtP-null S. aureus, primary screen, RN4220 ugtP deletion, OD600 | 16 h; some inactives read as strong as hits | actives 0.54% (n = 330,000) | growth inhibition, % (no concentration beside the values) | AID 1259309, 2017;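 active = z-score under -3 and OD600 up to 0.15 on both plates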;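 also: plate controls were untreated wells for no effect and antibiotic for full effect; wells of about 80 µL received 100 nL stock; the first replicate is given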
# Bead autofluor: counter-screen for toxin protease inhibitors: compound fluorescence. AID 624483. actives 3.1% (n = 360,000). fluorescence intensity (concentration not given with the values). compound autofluorescence counterscreen, microsphere flow cytometry; stronger effect = higher value;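 active = at least 3 SD above the mean of all compounds, about 16000 in these data; inconclusive = too few beads counted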;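 also: 100 nL of 1 mM stock went into each well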
# BJeLR viability: MLPCN primary cell-based screen for lethality selective to Ras in HRASV12 cells | inhibition, % (concentration not given with the values) | BJeLR (HRASV12) viability, CellTiter-Glo ATP luminescence, 48 h; reference of the scale not given here | actives 0.17% (n = 300,000);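 active = replicate mean above 50%; inconclusive = above 50% but judged a plate artefact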;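 also: 50 nL library stock added to about 25 µL; numbers are from one replicate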
# PrP 5UTR inh: inhibition of PrP 5' UTR reporter expression; actives 0.35% (n = 340,000); AID 488862, 2010; inhibition, % (concentration not given with the values); cell-based PrP 5' UTR mRNA reporter, plate reader;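 active = every replicate at 50% or more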;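 also: 0 = median of the neutral control wells; tested in H4 reporter cells; numbers are from one replicate; inactives centre near -14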
# Mtb hypoxia inh: PubChem AID 1159583; fluorescence inhibition, % (no concentration beside the values); actives 0.1% (n = 300,000); M. tuberculosis hypoxia-regulated fluorescent reporter, fluorescence;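 active = 35 to 45% if threefold the growth effect, above 45% if 1.5-fold the growth effect; inactive = the rest, general growth blockers included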;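 also: wells of about 50 µL received 100 nL stock; 0% = vehicle wells and 100% = reference inhibitor wells; whole bacteria with a GFP reporter of the hypoxia response; strong numbers were not always called active; many hits fall short of the cut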
# Sa RN4220 lethal: growth inhibition of S. aureus RN4220, primary screen, OD600; 16 h; actives 0.33% (n = 330,000); inhibition, % (test concentration not listed); AID 1259311, 2017;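 active = z-score of -3 or lower and OD600 up to 0.18 on both plates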;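 also: plate controls were untreated cells for no effect and reference antibiotic for full effect; stock transfer was 100 nL into about 80 µL; one replicate is shown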
# Mtb hypoxia inh growth: further read-out of Mtb hypoxia inh, marked with its call; growth inhibition, %; measured here: M. tuberculosis growth (absorbance);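 0% = vehicle and 100% = reference antibiotic; read after six days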
# * = called active by the depositor; ? = inconclusive; nt = not tested or not shown; & = joins results of further samples. Hits appear at their usual frequency; overall some 4% were active at least once.
no.	molecule	Sa RN4220 lethal	BJeLR viability	Sa ugtP lethal	Mtb hypoxia inh	Mtb hypoxia inh growth	Bead autofluor	PrP 5UTR inh
1	CCCCN1C(=O)NC(=O)C2(Cc3c(nc4ccccn4c3=O)N3CCc4ccccc4C32)C1=O (stereo not drawn)	5.9	1	-7	-6	9	6293	-23
2	Cc1ccc(C)c(OCC(=O)NNC(=O)C2CCC2)c1	3.7	nt	2	-6	-11	6096	5
3	Cn1c(=NN=Cc2ccccn2)sc2ccccc21	7.4	nt	-17	-3	-10	nt	nt
4	C=CCOC(=O)C1=CC(c2ccc(Br)cc2)CC(OCCCCO)O1 (stereo not drawn)	5.3&7.0	nt	4&4	9&15	12&10	nt	nt
5	Cc1ccc(C(=O)NNC(=S)Nc2cccc(Cl)c2Cl)cc1[N+](=O)[O-]	3.3	9	-3	-8	-4	10805	nt
6	Cc1cc(C)c2c(c1)C1(OCCO1)C(=O)N2	8.4	1	7	17	4	3819	-23
7	COc1cccc(C(=O)NNC(=O)/C=C/c2ccccc2)c1	-4.5	0	4	0	7	6793	-36
8	CCOc1ccc(/C=N/OCC(=O)NCc2cccs2)cc1	nt	1	nt	nt	nt	2452	-58
9	CC(C)(C)C(=O)CN1C(=O)NC2(CCOc3ccccc32)C1=O (stereo not drawn)	0.1	1	2	6	2	4090	-11
10	CCOC(=O)c1ccc(-c2c(C)cc3oc(=O)cc(-c4ccccc4)c3c2C)cc1	-2.9	nt	18	-2	2	3348	-11
11	Cc1ccccc1Cn1cccc1C=C1C(=N)N2C=CSC2=NC1=O	1.6	nt	-12	7	-1	nt	nt
12	CC(C)CNC(=S)NC(=O)c1ccc(Cl)cc1Cl	3.8	7	60	0	3	3637	-46
13	O=C(O)c1oc2ccccc2c1CN1CCN(c2ccccc2)CC1	9.1	-17	2	11	5	3285	-19
14	O=C(CCc1ccccc1)NN1C(=O)C2C3C=CC(O3)C2C1=O (stereo not drawn)	5.0	4	12	4	5	4860	-11
15	O=C(CSc1nc(C2CCCCC2)n(-c2ccccc2)n1)NCCN1C(=O)CSC1=O	6.0	-3	-1	11	6	3717	-17
16	Cc1cc(C)nc(N=C(N)Nc2ccc3c(c2)OCCO3)n1	8.2	nt	9	14	12	nt	nt
17	CCOC(=O)C1CCCN(c2ncnc3c2cnn3-c2cccc(C)c2)C1 (stereo not drawn)	6.7	2	-2	2	9	7715	nt
18	COc1ccc(C(C)=NNc2nc3ccccc3nc2C)cc1OC	1.7	nt	3	-13	-6	nt	nt
19	Cc1cc(Sc2nc(NC(C)(C)C)nc(N3CCOCC3)n2)nc(Cl)n1	2.1	15	11	6	1	2331	-16
20	NS(=O)(=O)c1ccc(Nc2nc(-c3ccccc3)cs2)cc1	-0.5	1	-13	3	13	23227*	-41
21	COc1ccccc1CCc1nnc(CCC(=O)NC(C)Cc2cccnc2)o1 (stereo not drawn)	2.6	-5	0	-9	-6	2140	-12
22	Cc1ccc(CCNC(=O)CS(=O)Cc2nc(-c3ccccc3Cl)oc2C)cc1 (stereo not drawn)	1.8	-1	-11	-3	11	4196	-13
23	CCOc1ccccc1-n1c(SCC(N)=O)nnc1-c1ccco1	1.7	3	2	-5	-4	8355	-13
24	CCOc1ccc(C(=O)Cc2cc(OC)c(OC)cc2[N+](=O)[O-])cc1	1.8	8	2	-1	-3	11032	-9
25	CCCCNS(=O)(=O)c1ccc2nc(-c3cccnc3)cc(C(=O)NC(C)CC)c2c1 (stereo not drawn)	2.5	-5	-3	-5	1	5692	-10
26	Cc1c(OC(C)C(=O)NCCCN2CCOCC2)ccc2c3c(c(=O)oc12)CCCC3 (stereo not drawn)	2.7	7	0	-2	-6	5373	-5
27	CC1CC(C)CN(C(=O)CCNC(=O)Cn2cnc3ccccc3c2=O)C1 (stereo not drawn)	7.3	-4	8	-5	8	4592	-22
28	Cc1ccc(NC(=O)c2ccc(C)cc2)cc1	3.8	0	1	4	4	4318	-7
29	COc1ccc(NC(=O)COC(=O)[C@@H](NC(=O)c2c(F)cccc2F)C(C)C)cc1	-0.2	1	5	-3	-9	2571	-13
30	O=C(Cc1ccc(Br)cc1)N(Cc1ccccc1)c1ccccn1	1.4	1	-2	12	15	4192	-25
31	COc1ccc(S(=O)(=O)N2CCCCCC2)cc1NC(=O)c1ccccc1S(C)(=O)=O	7.9	nt	0	18	9	4132	-32
32	Cc1c(C#N)c(N)nc2c3c(sc12)NC(=O)CC3c1ccc(Cl)cc1 (stereo not drawn)	nt	-2	nt	nt	nt	2437	-5
33	O=C(Nc1ccc(Br)cc1)c1nn(C23CC4CC(CC(C4)C2)C3)cc1Br	-6.7	-11	9	nt	nt	2482	-11
34	CS(=O)(=O)c1ccc(Cl)c(NC(=O)CN2CCN(C(=O)c3cccs3)CC2)c1	3.6	nt	9	19	14	3567	-23
35	CC(C)=CC(=O)NCc1c(Cl)cccc1-n1cccc1	3.7	-7	3	9	3	24294*	-6
36	COc1ccc2cc3c(N)nn(C(=O)C4CCC(C(C)(C)C)CC4)c3nc2c1 (stereo not drawn)	18	4	82	5	9	5160	30
37	COc1cc(CNC2CCCCCC2)cc(OC)c1	-2.2	-1	-5	-4	11	9792	-40
38	CC(Oc1ccc(F)cc1)C(=O)/C=C\N(C)C (stereo not drawn)	4.2	-7	-4	6	-5	5680	-19
39	O=C(COC(=O)c1cccc(N2C(=O)C3CC=CCC3C2=O)c1)c1ccccc1 (stereo not drawn)	5.4	2	10	9	-2	3693	-16
40	COC(=O)[C@@]12CCCCN1[C@H](c1ccc(-c3ccc(C(C)=O)cc3)cc1)[C@@H]1C(=O)N(C)C(=O)[C@@H]12	nt	4	nt	nt	nt	4208	-23
41	Cc1cccc(NC(=O)c2cccc(OC(=S)N3CCOCC3)c2)c1C	-0.9	-3	1	-3	-2	4695	-9
42	COc1ccc(CNc2nnnn2C)cc1	2.3	-15	1	6	12	3917	-31
43	COc1ccc(N2CCN(CCNC(=O)Nc3ccc([N+](=O)[O-])cc3OC)CC2)cc1	-2.7	1	22	5	9	3703	-7
44	COc1ccc(OC)c(Nc2cc3ccccc3c(=O)[nH]2)c1	5.9	15	2	2	-1	2960	11
45	Cc1ccc(C(=O)NC(=S)Nc2ccc(-c3cc4ccccc4oc3=O)cc2)c(C)c1	2.3	5	-5	-5	-2	2542	11
46	COc1ccc(CCn2nnnc2C(c2ccc(C)cc2)N2CCN(C)CC2)cc1OC (stereo not drawn)	3.6	0	4	nt	nt	4082	-19
47	CC(C)n1nnnc1SCC(=O)NNC(=O)C1CCCCC1	3.9	6	7	-2	4	10210	-8
48	COc1ccc(-n2c(Cn3c(=O)sc4ccccc43)nnc2SCC(N)=O)cc1	6.0	8	9	nt	nt	6410	-29
49	CCCCNC(=O)C1CC(=O)N(CCc2ccc(C)cc2)C1 (stereo not drawn)	3.5	-3	4	-3	-6	3900	-20
50	CCCCCCNC(=O)c1cccc(-c2ccc(C)c3ccccc23)n1	-4.2	-4	90*	11	9	3799	-10
51	O=C(NCC1CCCO1)NC1CCCCC1 (stereo not drawn)	2.8	-4	-10	7	9	?	-18
52	CC(=NNc1ccccc1)C(C)=NNc1ccccc1	1.3	nt	4	4	8	3635	-13
53	CCOC(=O)c1cnc2ccc(C(=O)OC)cc2c1Nc1ccc2c(c1)OCCO2	2.6	-6	4	6	4	11245	5
54	S=c1[nH]nc(-c2cc(-c3ccccc3)n[nH]2)n1N=Cc1ccc(Br)s1	-20	nt	-14	0	2	nt	nt
55	Cc1ccnc(NS(=O)(=O)c2ccc(NC(=O)c3ccc(S(=O)(=O)N4CCCC4)cc3)cc2)n1	1.3	-3	9	23	24	1957	-21
56	CS(=O)(=O)Nc1ccccc1Oc1ccccc1	-15	18	-4	8	8	2565	-5
57	O=C(NCCC1=CCCCC1)C(=O)NCC1OCCCN1S(=O)(=O)c1ccccc1 (stereo not drawn)	-4.8	-17	0	-5	-8	2033	-17
58	CCOc1cc(C2C3=C(CCCC3=O)N(C)C3=C2C(=O)CCC3)cc(Cl)c1O	-3.2	-3	-4	2	2	?	9
59	Cc1c(C(=O)Nc2ccc(-n3cnnn3)cc2)oc2ccccc12	7.3	nt	1	11	3	4380	-29
60	CC(C)NC(=O)c1cc2c(s1)CCCC2	9.7	7	1	24	24	4642	-13

# The results go on:
no.	molecule	Sa RN4220 lethal	BJeLR viability	Sa ugtP lethal	Mtb hypoxia inh	Mtb hypoxia inh growth	Bead autofluor	PrP 5UTR inh
61	COc1ccc(-c2[nH]nc3oc(=O)c(CCO)c(C)c23)cc1	-2.3	3	-1	-3	10	2149	-8
62	S=c1[nH]ncn1/N=C/c1cccc(Oc2ccccc2)c1	nt	0	nt	nt	nt	4208	-2
63	COc1cccc(CNC(=O)Cn2c(=O)c3cccn3c3ccccc32)c1	3.8	-6	-3	4	-3	5731	-8
64	CCN1CCN(c2c(C(=O)c3ccc(OC)cc3)cnc3ccccc23)CC1	0.3	3	15	nt	nt	6021	-7
65	Cc1ccc(C(=O)CCC(=O)CCC(=O)O)cc1	2.1	-5	4	4	6	11167	-9
66	OC(c1ccccc1)c1cccnc1 (stereo not drawn)	-3.2	0	1	-4	7	10157	2
67	O=C(CN(C(=O)CNC(=O)c1cccs1)c1ccc2c(c1)OCCO2)NC1CCCC1	0.5	-1	2	-3	-7	9589	10
68	Cc1ccc(Nc2c([N+](=O)[O-])c(=O)oc3ccccc23)cc1	6.6	5	6	4	-2	3159	-1
69	COC(=O)[C@@]12CCCN1C(c1ccc(-c3cccc(Cl)c3)c(OC)c1)C1C(=O)N(C)C(=O)C12 (stereo partly drawn)	-1.1	nt	-3	14	12	nt	nt
70	CC1Cc2cc(/C(O)=C3/C(=O)C(=O)N(Cc4cccnc4)C3c3cccc(O)c3)ccc2O1 (stereo not drawn)	-0.8	-1	1	-4	10	5269	-6
71	Cc1ccc(C(=O)N2CCc3ccccc32)o1	3.1	3	6	-2	1	2352	-103
72	CC1CCN(CCCOc2ccc(OCc3ccccc3)cc2)CC1	1.5	-1	6	nt	nt	5265	-13
73	CCCCC1=CC2=C(c3ccco3)C(=O)C(C)(OC(=O)c3ccc(OC)cc3)C(=O)C2=CN1CCOC (stereo not drawn)	5.6	-13	15	14	3	3673	-10
74	COc1ccc(-c2cc(C(F)(F)F)nc(-n3cc(Br)cn3)n2)cc1	0.8	3	17	0	-3	3416	-14
75	CC(C)(C)N(NC(=O)c1ccccc1)C(=O)c1ccc(C(=O)N(NC(=O)c2ccccc2)C(C)(C)C)cc1	6.4	12	-6	4	-2	2365	0
76	COc1ccccc1CN1CC(C(=O)NCCSc2nnnn2C)CCC1=O (stereo not drawn)	1.8	-8	13	5	4	4986	-28
77	O=S(=O)(Nc1ccc(-c2nc3cccnc3s2)cc1)c1ccccc1F	8.0	5	2	9	2	3935	-34
78	O=C(c1ccccn1)N1N=C2C(=Cc3ccc(F)cc3)CCCC2C1c1ccc(F)cc1 (stereo not drawn)	-0.2	nt	-5	-2	2	nt	nt
79	CCOC(=O)c1ccc(S(=O)(=O)NNC(=O)COc2cccc(C)c2)cc1	3.1	-6	3	7	3	2002	-20
80	CC(=O)c1ccc(NC(=O)COc2ccc3c(c2)OCO3)cc1	1.5	0	7	-4	4	3802	-17
81	COc1ccc(NC(=O)COc2ccc(C(=O)OCC(=O)N(C(C)C)C(C)C)cc2OC)cc1	2.8	4	5	-5	-5	4696	5
82	COC(=O)C(O)(c1ccc(N(C)C(=O)c2ccc(Cl)c(Cl)c2)cc1)C(F)(F)F (stereo not drawn)	1.8	-1	3	1	-7	10775	-2
83	COc1ccccc1NC(=O)Nc1nc(CC(=O)NCc2cccnc2)cs1	0.0	-3	3	4	15	5865	-4
84	CCOc1cc(N2C(=O)CC3CS(=O)(=O)CC32)c(OCC)cc1NC(=O)c1ccccc1 (stereo not drawn)	3.7	2	13	11	5	3611	-15
85	COc1cc2c3c(c1)C(C)CC(C)(C)N3C(=O)C2=O (stereo not drawn)	nt	2	nt	nt	nt	3284	-8

# Look-ups from the results shown.
# entry 83 in Mtb hypoxia inh reads 4
# entry 82 in Sa RN4220 lethal reads 1.8

# High-throughput results as filed in PubChem BioAssay.
